Epigenetic derep: regulators of epigenetic silencing causing reporter derepression in mouse cells; 280,000 compounds, 0.2% hits; Potency, µM (series often up to 53.9 µM), for the others: at the top dose GFP activation, most hits filed as activators; AID 1865; murine LDR cells, GFP reporter derepression, 30 h; further: % of control where 0% means no effect; nearly all actives have a fitted effect of over 60% in size
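Derepression of a silenced CMV-GFP reporter in murine LDR cells is scored by enumerating GFP-positive cells with a laser-scanning microplate cytometer after 30 hours of treatment at 37 C.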
ALDH1A1 block: blocks purified human ALDH1A1 activity | 220,000 compounds, 7.3% hits | P00352 | Potency, µM (titrated, usually from 75.3 µM), for the others: at the highest dose activity, negative = inhibition, actives largely listed as inhibitors | Purified ALDH1A1, NADH fluorescence, propionaldehyde substrate; active means well fitted inhibition curve with a large enough effect, not every such curve was filed as active; inconclusive means small, poorly fitted or top-dose-only effect, or another doubt; inactive means no such curve, though single readings can be large or run the other way;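 further: plate controls were no enzyme wells and a reference inhibitor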
Target sequence (P00352 whole entry, looked up): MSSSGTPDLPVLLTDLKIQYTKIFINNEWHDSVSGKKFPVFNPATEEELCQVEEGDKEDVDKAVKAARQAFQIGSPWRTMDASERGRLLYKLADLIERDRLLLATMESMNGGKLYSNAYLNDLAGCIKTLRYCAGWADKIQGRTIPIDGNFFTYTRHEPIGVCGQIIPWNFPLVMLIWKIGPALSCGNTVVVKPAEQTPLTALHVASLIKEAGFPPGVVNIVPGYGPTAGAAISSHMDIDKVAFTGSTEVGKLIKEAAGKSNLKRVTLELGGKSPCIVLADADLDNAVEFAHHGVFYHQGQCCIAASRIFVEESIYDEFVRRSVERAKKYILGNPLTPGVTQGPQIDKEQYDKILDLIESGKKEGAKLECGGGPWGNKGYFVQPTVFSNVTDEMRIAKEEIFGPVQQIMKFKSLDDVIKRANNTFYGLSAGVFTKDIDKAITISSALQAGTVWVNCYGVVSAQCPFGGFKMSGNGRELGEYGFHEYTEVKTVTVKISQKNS
GLA spleen mod: inhibits or activates alpha-galactosidase in human spleen homogenate | P06280 | human spleen homogenate, 4MU-alpha-Gal fluorescence, 40 min | Potency, µM (series often up to 80 µM), without a hit: top-dose activity change, negative = inhibition, actives largely listed as inhibitors | 240,000 compounds, 0.008% hits | AID 2107;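 further: 0% = enzyme with vehicle and -100% = no enzyme basal signal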
Target sequence (P06280 32-429 limits assumed): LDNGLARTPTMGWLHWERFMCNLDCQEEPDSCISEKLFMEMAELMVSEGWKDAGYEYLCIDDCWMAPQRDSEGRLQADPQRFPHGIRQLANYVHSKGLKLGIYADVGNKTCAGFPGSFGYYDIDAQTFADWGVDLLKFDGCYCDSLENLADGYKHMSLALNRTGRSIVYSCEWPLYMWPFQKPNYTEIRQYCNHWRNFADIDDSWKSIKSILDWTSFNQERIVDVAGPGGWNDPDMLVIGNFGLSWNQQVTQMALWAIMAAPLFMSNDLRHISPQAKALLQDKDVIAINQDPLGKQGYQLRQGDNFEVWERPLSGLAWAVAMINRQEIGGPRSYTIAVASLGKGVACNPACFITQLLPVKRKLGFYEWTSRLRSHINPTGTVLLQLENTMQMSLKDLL
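Inhibition or activation of alpha-galactosidase in human spleen homogenate is scored by 4-MU fluorescence after 40 min at 37C, pH 5.0, with 1 mM substrate. AC50s come from concentration-response fitted to the Hill equation.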
Tau fluor cs: counter-screen for tau fibril formation inhibitors; tau K18 P301L (four-repeat tau fragment) Alexa594 fluorescence, heparin fibrillization; Potency, µM (series often up to 57.7 µM), for inactives: top-dose activity change, negative = decrease; 280,000 compounds, 0.93% hits; further: on the % scale 0 is the no-effect control and ±100 the full control effect; nearly all actives have a fitted effect of over 55% in size
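Human K18 P301L tau (15 uM unlabeled plus 0.24 uM Alexa 594-labeled, final) in 100 mM sodium acetate pH 7 was mixed with compound and 20 uM heparin and incubated 6 hr at 37 C.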
GAA spleen mod: inhibitors or activators of human alpha-glucosidase in spleen homogenate; human spleen homogenate, 4-MU-alpha-glucoside fluorescence; AID 2112; Potency, µM (top dose mostly 79.9 µM), for inactives: at the highest dose activity change, negative = inhibition, most hits filed as inhibitors; 240,000 compounds, 0.006% hits; P10253;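 further: 0% = enzyme with vehicle and -100% = no enzyme basal signal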
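Compounds were titrated against alpha-glucosidase in spleen homogenate at pH 5.0, with 1 mM 4-methylumbelliferyl substrate for 40 min at 37 C. Reactions were quenched with pH 10 NaOH/glycine and fluorescence measured.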
GAA glycogen mod: alters human alpha-glucosidase cleavage of glycogen; recombinant GAA, glycogen substrate, Amplex Red glucose oxidase fluorescence; 300,000 compounds, 0.38% hits; Potency, µM (doses to about 76.4 µM), inactives show top-dose activity change, negative = inhibition, usual class: inhibitors; AID 2100;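 further: 0% = full enzyme reaction and -100% = no-enzyme basal signal; the screen sought inhibitors and activators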
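Natural-substrate format: glycogen cleavage by 4 nM human enzyme, glucose read by Amplex Red coupling (Ex 573, Em 610 nm). Normalized to enzyme and no-enzyme controls.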
GAA inhib: alpha-glucosidase (human) inhibition; P10253; purified human GAA, 4-MU-alpha-glucoside fluorescence; Potency, µM (highest dose often 76.9 µM), without a hit: top-dose activity change, negative = inhibition, usual class: inhibitors; 200,000 compounds, 0.005% hits;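 further: plate controls were uninhibited enzyme wells for no effect and no-enzyme background for full effect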
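Compounds are titrated up to 77 uM against 4 nM human enzyme. Substrate 4-methylumbelliferyl-alpha-D-pyranoside (400 uM) reacts 20 min at room temperature in pH 5.0 buffer; liberated 4-methylumbelliferone is read at 440 nm.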
The depositor's hits bear a star; u = inconclusive; x = not tested or not shown; [ ] = remark or other dose. Unless noted, the call rests on the fitted dose curve; in most records, active means well fitted curve in the direction sought with a large enough effect; inconclusive means small, poorly fitted or top-dose-only effect, or another doubt; inactive means no such curve, though single readings can be large; an effect the other way counts as inactive or inconclusive. Potency means the concentration at half of the fitted maximal effect. This is a subset; the hit share may differ from the screen's.

SMILES	Epigenetic derep	ALDH1A1 block	GLA spleen mod	Tau fluor cs	GAA spleen mod	GAA glycogen mod	GAA inhib
C=CCn1c(=S)[nH]c2scc(-c3ccc(C)o3)c2c1=O	-1.2%	u	7.1%	-20.6%	3.8%	-3.9%	0.7%
COc1ccc(C2c3c(ncn(CCN4CCOCC4)c3=N)Oc3ccc4ccccc4c32)cc1 (stereo unspecified)	-1.0%	10.0%	7.8%	-18.9%	2.4%	-4.6%	-4.5%
O=C(O)c1ccc(/C=C2\SC(=Nc3ccccc3)N(c3ccccc3)C2=O)cc1	-3.1%	15.8µM*	5.8%	-10.6%	-1.8%	-0.7%	-3.1%
CC1Cc2ccccc2N1C(=O)C1CCCN(S(=O)(=O)c2cccc3nsnc23)C1 (stereo unspecified)	-1.3%	-0.5%	0.6%	-7.1%	-3.1%	-13.7%	u
CC(=O)N(CCC(c1ccco1)C(C)C)Cc1ccc(Cl)cc1 (stereo unspecified)	4.0%	u	4.8%	-5.5%	-1.8%	-16.1%	-12.6%
CCOC(=O)N1CCN(c2c(-c3ccccc3)c3cc(Cl)ccc3[nH]c2=O)CC1	-0.9%	91.6%[activator]	3.8%	3.8%	-6.5%	1.1%	4.4%
Cc1ccc2c(c1)[nH]c1c(N3CCN(Cc4ccc5c(c4)OCO5)CC3)ncnc12	-3.3%	-8.5%	11.6%	-19.0%	1.7%	13.8%	1.0%
CCOC(=O)Cn1c(-c2ccccc2)nc2ccccc2c1=O	-2.1%	6.1%	-8.6%	-22.4%	-13.2%	-4.6%	2.4%
CC(c1ccccc1)N(CCC(c1ccccc1)C1CCOC(C)(C)C1)C(=O)c1ccco1 (stereo unspecified)	-1.0%	u	u	-2.8%	-10.9%	5.4%	-5.8%
CC1CCCN(C(=O)c2ccc3c(=O)n(Cc4ccc5c(c4)OCO5)c(=S)[nH]c3c2)C1 (stereo unspecified)	0.0%	10µM*	1.1%	-27.8%	1.5%	0.9%	u
COc1ccc(CCNC(=O)CSc2nnc(-c3ccc(F)cc3)o2)cc1OC	-6.6%	-2.8%	0.1%	-6.4%	4.3%	-0.3%	-2.2%
CCCCSc1nc(SCC(=O)NCc2ccco2)c2c3c(sc2n1)COC(C)(CC)C3 (stereo unspecified)	-1.0%	22.4µM*	4.9%	-4.3%	8.0%	-3.6%	-4.1%
CC1(C)CC(=O)C2=C(C1)NC1=C(C(=O)c3ccccc31)C2c1ccc(Cl)cc1 (stereo unspecified)	-1.3%	9.2%	-6.3%	u	-1.2%	-7.8%	-10.9%
CC(=O)Nc1cccc(-c2nc3ccccc3[nH]2)c1	1.1%	u	-3.4%	4.0%	8.2%	-5.5%	9.6%
O=C(Nc1cccc(-c2nnc(-c3ccco3)o2)c1)C(c1ccccc1)c1ccccc1	-1.0%	u	-11.5%	u	-15.1%	-15.8%	-8.0%
CCN(CC)c1ccc(-c2nnc(SCC(=O)Nc3ccccc3C#N)n2-c2ccccc2)cc1	-1.1%	u	-11.9%	-20.1%	-12.3%	-11.6%	-2.1%
CCOC(=O)N1CCC(NC(=O)c2ccc3c(c2)N(Cc2ccc(C)cc2)CCS3)CC1	-0.8%	u	6.3%	-6.3%	0.0%	4.9%	9.0%
COc1cccc(NC(=S)N(CCCN2CCCC2)Cc2cccn2Cc2ccc(Cl)cc2)c1	-1.6%	-6.3%	-11.6%	u	1.2%	-4.4%	-5.8%
CCn1c(Cc2ccccc2)nnc1SCC(=O)Nc1ccc(C)cc1	-0.8%	-0.5%	-7.5%	-7.2%	4.9%	2.8%	-4.6%
COc1ccc2cc(C(c3nnnn3C3CCCC3)N3CCOCC3)c3nnnn3c2c1 (stereo unspecified)	2.1%	-13.0%	3.6%	7.1%	2.0%	7.2%	11.6%
CCc1cc(C(c2ccncc2)N2CCN(C)CC2)c(NC(=O)c2ccccc2)s1 (stereo unspecified)	0.0%	-5.7%	11.2%	-8.6%	-1.6%	-4.4%	-3.8%
CCc1nc2c(n1O)CCc1nonc1-2	-2.8%	u	4.7%	-12.3%	0.5%	6.7%	-7.6%
CCCCOc1ccc2c(C)cc(=O)oc2c1OCCCC	-1.2%	u	-7.0%	-13.0%	-4.1%	-20.8%	u
COC(=O)c1ccccc1NC(=O)CN1CCC(n2nnc3cc(C)ccc32)CC1	4.8%	-11.7%	7.3%	-3.4%	6.7%	-6.2%	1.9%
Cn1c(-c2ccc3c(c2)OCO3)cnc1NCc1cccc(Cl)c1	-0.2%	14.1µM*	-7.6%	-11.9%	-7.1%	17.6µM*	-2.7%
Next part.
SMILES	Epigenetic derep	ALDH1A1 block	GLA spleen mod	Tau fluor cs	GAA spleen mod	GAA glycogen mod	GAA inhib
CC1(c2ccccc2)CC(C)(C)N(C(=O)C2CCCO2)c2ccccc21 (stereo unspecified)	-0.1%	-11.4%	-8.0%	-9.3%	0.8%	-13.4%	-7.8%
COc1cc2c(cc1NC(=O)CN1CCN(S(=O)(=O)c3ccc(F)cc3)CC1)oc1ccccc12	-1.0%	u	6.1%	-12.0%	-1.5%	0.3%	u
Clc1ccc2ncc(-c3nnnn3-c3ccccc3)c(-c3ccccc3)c2c1	-0.7%	11.2µM*	-1.8%	-13.5%	-3.5%	-16.9%	-4.9%
CN(C)S(=O)(=O)c1cccc(NC(=O)CSc2ncnc3ccccc23)c1	1.8%	x	-0.5%	u	0.6%	-7.2%	x
CC(C)Cc1nc2oc3c(Cl)ncnc3c2c2c1CCC2	-1.2%	u	-18.0%	-7.0%	-8.9%	0.9%	5.9%
Cc1nc(NC(=O)c2ccc(Cl)cc2)sc1Cc1ccc2c(c1)OCO2	1.0%	u	-5.6%	-22.0%	4.0%	-3.4%	7.3%
Cc1ccccc1N=C(NOCc1ccc(Cl)cc1Cl)c1nonc1N	1.5%	u	-23.2%	u	-14.3%	-2.6%	-8.6%
O=C(c1cc2sccc2n1Cc1ccc(F)cc1)N1CCCc2ccccc21	-1.9%	0.4%	-4.3%	-13.7%	-7.3%	-3.9%	-1.2%
Cc1ccc(N(NC(=O)C(C)(C)O)C(=O)c2ccccc2)cc1C	-1.0%	-4.7%	-8.2%	-20.8%	0.2%	2.1%	-2.2%
CC1CC(C)CN(CC(=O)Nc2ccc(S(N)(=O)=O)cc2)C1 (stereo unspecified)	-15.9%	8.91µM*	-0.9%	7.0%	-1.3%	2.2%	-7.5%
CCOC(=O)C1=C(C)NC2=C(C(=O)CC(c3ccc(OC)c(OC)c3)C2)C1c1ccc(C)o1 (stereo unspecified)	-0.4%	u	-1.7%	2.3%	-10.1%	2.0%	-15.9%
CC(C)C[C@H](NC(=O)c1nc[nH]c1C(=O)NCc1ccccc1)C(=O)OCc1ccccc1	0.1%	-6.2%	3.2%	u	2.5%	0.0%	x
C=CCNC(=O)Nc1ccc2nc(C)sc2c1	-1.9%	7.3%	0.3%	-3.9%	0.4%	7.5%	u
Cc1cc(C)n(-c2nc(NCCC(C)C)c3c4c(sc3n2)COC(C)(C)C4)n1	-2.7%	u	-1.2%	-7.9%	-3.7%	1.3%	2.4%
COC(=O)CCC(=O)Nc1cccc([N+](=O)[O-])c1	0.0%	5.0%	0.6%	-7.7%	-4.7%	4.4%	-11.5%
Cc1[nH]n(-c2ccccc2)c(=O)c1C(=O)c1ccc(Cl)cc1	-3.7%	x	2.7%	-9.6%	0.2%	5.4%	x
Cc1ccc(C(c2nnnn2C(C)(C)C)N(Cc2ccco2)Cc2cccs2)cc1 (stereo unspecified)	1.2%	-3.2%	5.5%	-7.4%	-0.9%	-5.2%	-8.3%
CCCC(NC(=S)NCC1CCCO1)C12CC3CC(CC(C3)C1)C2 (stereo unspecified)	1.1%	u	-14.2%	-12.0%	-9.5%	-5.1%	-8.1%
O=c1c2c(n3cnnc3n1C1CCCCC1)-c1ccccc1CC21CCCCC1	0.1%	-0.1%	0.1%	4.7%	4.1%	4.9%	-11.8%
Cc1nn(C(C)C(=O)O)c2ccccc12 (stereo unspecified)	-0.5%	6.2%	0.6%	-1.7%	0.6%	0.7%	3.0%
COC(=O)c1cccc(S(=O)(=O)N2CCC(NC(=O)NC34CC5CC(CC(C5)C3)C4)CC2)c1	-1.0%	-3.3%	9.1%	-22.9%	-7.2%	-5.9%	-15.1%
Cn1c(SCCOc2cccc(Cl)c2)nnc1-c1ccncc1	0.1%	-17.8%	-3.9%	2.0%	-6.4%	4.9%	8.4%
N#Cc1c(N2CCN(C(=O)c3ccco3)CC2)nc(-c2ccccc2)c2c1CCCC2	1.8%	u	4.5%	2.2%	-1.1%	-0.3%	u
CN(C(=O)c1cc2nc(-c3ccco3)cc(C(F)(F)F)n2n1)C1CCCCC1	-4.8%	0.6%	-4.2%	-13.1%	-4.4%	4.0%	-0.6%
Cc1ccc(C(C(=O)NC2CCCCC2)N(Cc2ccccc2)C(=O)Cc2c[nH]c3ccccc23)o1 (stereo unspecified)	-1.1%	u	-9.3%	-24.5%	-10.9%	0.4%	1.2%

Entries of single compounds as entered above. Screens in order: Epigenetic derep, ALDH1A1 block, GLA spleen mod, Tau fluor cs, GAA spleen mod, GAA glycogen mod, GAA inhib
`CC(=O)Nc1cccc(-c2nc3ccccc3[nH]2)c1` is listed with 1.1%, u, -3.4%, 4.0%, 8.2%, -5.5%, 9.6%
`CCOC(=O)N1CCC(NC(=O)c2ccc3c(c2)N(Cc2ccc(C)cc2)CCS3)CC1` is listed with -0.8%, u, 6.3%, -6.3%, 0.0%, 4.9%, 9.0%
`CC(c1ccccc1)N(CCC(c1ccccc1)C1CCOC(C)(C)C1)C(=O)c1ccco1` (stereo unspecified) is listed with -1.0%, u, u, -2.8%, -10.9%, 5.4%, -5.8%
`CN(C(=O)c1cc2nc(-c3ccco3)cc(C(F)(F)F)n2n1)C1CCCCC1` is listed with -4.8%, 0.6%, -4.2%, -13.1%, -4.4%, 4.0%, -0.6%
`N#Cc1c(N2CCN(C(=O)c3ccco3)CC2)nc(-c2ccccc2)c2c1CCCC2` is listed with 1.8%, u, 4.5%, 2.2%, -1.1%, -0.3%, u

Following part.
SMILES	Epigenetic derep	ALDH1A1 block	GLA spleen mod	Tau fluor cs	GAA spleen mod	GAA glycogen mod	GAA inhib
CCOC(=O)CN1C(=O)SC(Nc2ccc(C)cc2)C1=O (stereo unspecified)	-0.6%	u	7.8%	-8.2%	1.0%	-20.6%	u
COc1cnn(-c2ccccc2)c(=O)c1SCc1ccc(Cl)c(Cl)c1	-0.2%	1.1%	3.8%	-11.0%	5.9%	-8.5%	4.8%
CCOC(=O)NC1(NCc2ccccc2)Oc2ccccc2O1	0.0%	22.4µM*	5.1%	-22.3%	1.4%	15.7µM*	4.1%
Cc1cc(N/N=C/c2ccc(F)cc2)nc(-n2nc(C)cc2C)n1	-3.0%	x	2.7%	-25.9%	0.0%	-3.5%	x
CC(=O)/C(C#N)=C1\NC(=O)C(Cc2ccccc2Cl)S1 (stereo unspecified)	-1.1%	-11.2%	-2.4%	-13.3%	4.3%	3.6%	u
Cc1ccc(S(=O)(=O)N(Cc2ccccc2)c2ccccc2C(=O)NCc2ccco2)cc1	-1.2%	1.9%	2.7%	-11.9%	2.8%	-3.6%	-5.5%
